# MgrA-DNA mod: alters Staphylococcus aureus MgrA binding to DNA | hit rate 0.13% among 84,000 | inhibition, %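 (about 10 µg/mL by stock and volumes)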 | fluorescence polarization;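 active = above 50% in either of two replicates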;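 also: 0% = protein plus DNA without compound and 100% = DNA alone without protein; higher means less MgrA bound to DNA so lower polarization; one replicate is shown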
# S aureus helic: blocks Staphylococcus aureus DNA helicase; inhibition, %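 (tested at about 80 µM)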; purified S. aureus helicase, fluorescence unwinding assay; about half of the hits fall short of the stated cut; hit rate 0.05% among 120,000;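 active = both duplicates at 50% or more, or one of them with a favoured structure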;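 also: 0% = mean of negative control wells and 100% = mean of positive control wells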
# Starred values were filed as active, the others as inactive; . = no result given.
MgrA-DNA mod	S aureus helic	mol
4.0	15	O=C1c2ccccc2-c2n[nH]c(=O)c3ccc(N4CCOCC4)c1c23
.	0	O=c1nc2c3ccccc3ncn2[nH]1
-1.2	0	CC1(C)CC(=O)c2c(C(=O)O)coc2C1
.	7	Nc1c(C(=O)NC2CCCC2)c2nc3ccccc3nc2n1/N=C/c1cccnc1
2.0	12	Cn1c(C(=O)N(Cc2ccccc2)Cc2cccs2)cc2sccc21
.	0	CCCCn1c(CCC(=O)Nc2ccc(NC(C)=O)cc2)nc2cc(S(=O)(=O)N(C)C)ccc21
.	8	CCC(=O)N1N=C(c2ccc(NS(C)(=O)=O)cc2)CC1c1ccccc1 (stereo unspecified)
.	-18	CCSc1nnc(-c2sc3ccccc3c2Cl)o1
4.1	11	Cc1cccc(C)c1NC(=O)C(c1ccc(N(C)C)cc1)N1C(=O)CC1c1ccco1 (stereo unspecified)
.	-3	CC(C)(C)C(=O)COC(=O)Cn1nc(C(N)=O)c2ccccc2c1=O
.	-12	Cc1cc(I)ccc1NC(=O)c1ccc2c(c1)SC1=NS(=O)(=O)CCN12
-1.9	-2	CC(=O)N1CN(C(C)=O)C(O)C1O (stereo unspecified)
4.6	-4	Cc1nnc(Cl)c2ccccc12
.	-1	Brc1ccc2cc(Oc3cnccn3)ccc2c1
-23	12	COc1ccc(C2C3=C(CCCC3=O)NC3=C2C(=O)c2ccccc23)c(OC)c1OC (stereo unspecified)
0.9	15	CCOc1ccc2c(CC)cc(=O)oc2c1C
-1.4	.	Cc1nn(-c2ccccc2)nc1C(=O)Nc1ccc2[nH]ccc2c1
.	-34	CCC(C)NC(=O)C1c2ccccc2C(=O)N1Cc1ccccc1 (stereo unspecified)
.	2	Cc1ccccc1C(=O)N1CCc2ccccc2C1
.	9	CCOC(=O)C1CCN(C(=O)c2cccc3c2C(=O)N(C2CCCCC2)C3)CC1
-2.8	-9	O=C(O)COc1cccc(F)c1
3.8	20	O=C(NC(=S)Nc1ccc(-c2nc3ccccc3o2)cc1)c1ccccc1
0.0	6	Cc1cc(C)n(C(=O)CNC(=O)Cc2ccccc2)n1
.	2	CC(C)(C)S(=O)(=O)/C(C#N)=C/Nc1ccc(Cl)cn1
0.2	13	O=C(CN1C(=O)c2ccccc2S1(=O)=O)N1CCOCC1
-1.5	9	CN1C(=O)/C(=C2/Sc3ccccc3N2C)SC1=NC1CCCCC1
.	15	CC(=O)n1nc(-c2ccc(Cl)cc2)nc1NCc1ccco1
.	-7	COCC(C)n1c(C)cc(C(=O)Cn2ncc(Cl)c(Cl)c2=O)c1C (stereo unspecified)
-1.4	.	CC(=O)NC(=O)c1cc2cc(Br)ccc2oc1=Nc1ccc(F)cc1
0.9	3	O=C(COC(=O)CC1CCCC1)Nc1cc(C(F)(F)F)ccc1Cl

# No new results follow: 3 of the compounds above.
MgrA-DNA mod	S aureus helic	mol
4.0	15	O=C1c2ccccc2-c2n[nH]c(=O)c3ccc(N4CCOCC4)c1c23
.	0	O=c1nc2c3ccccc3ncn2[nH]1
-1.2	0	CC1(C)CC(=O)c2c(C(=O)O)coc2C1

# The listing picks up; the 4 compounds before the break are reprinted first.
MgrA-DNA mod	S aureus helic	mol
.	15	CC(=O)n1nc(-c2ccc(Cl)cc2)nc1NCc1ccco1
.	-7	COCC(C)n1c(C)cc(C(=O)Cn2ncc(Cl)c(Cl)c2=O)c1C (stereo unspecified)
-1.4	.	CC(=O)NC(=O)c1cc2cc(Br)ccc2oc1=Nc1ccc(F)cc1
0.9	3	O=C(COC(=O)CC1CCCC1)Nc1cc(C(F)(F)F)ccc1Cl
0.2	9	Cc1cc2c(cc3c(=O)n(CC(=O)NCCN4CCOCC4)ncn32)s1
-1.5	12	Cc1c(C(=O)Nc2ccccc2)sc2ncn(CC(=O)N3CCC(C)CC3)c(=O)c12
0.1	1	COc1cc(OC)c(NC(=O)c2ccc3nc(N4CCOCC4)sc3c2)cc1Cl
1.1	18	CC1(C)CC(=NNC(=O)c2n[nH]c3c2CCC3)CC(C)(C)N1
.	-29	CN(c1ccccc1)c1nc(OC(C(F)(F)F)C(F)(F)F)nc(OC(C(F)(F)F)C(F)(F)F)n1
2.0	.	N#CC(=C1SCCS1)S(=O)(=O)c1ccc(Cl)cc1
0.3	.	CC(C)(C)c1ccc(OC(=O)c2ccc(Cl)cc2)cc1
.	-3	O=C(Nc1ccc2c(c1)OCCO2)c1ccc(CSc2ncn[nH]2)cc1
.	-13	COc1ccc(C=Nc2ccc3c(c2)nc(C)n3C)cc1
.	15	O=S(=O)(Nc1ccc(N2CCCCC2)cc1)c1ccccc1C(F)(F)F
.	-5	CN(C)S(=O)(=O)c1ccc(N2CCC(C(=O)O)CC2)cc1
.	-5	CCc1ccc(CN(Cc2cccnc2)C(=O)c2cnc(C)cn2)cc1
.	4	NC(=O)c1nc(-c2cccnc2)nc2c1[nH]c(=O)n2-c1ccccc1
-3.7	2	CCN(CC)Cc1c(C(C)(C)C)oc(C)c1C(=O)O
.	6	CSc1ncccc1C(=O)OCC(=O)N1CCCC1
.	8	COc1cccc(CNS(=O)(=O)c2ccc3c(c2)OCC(C(=O)N2CCCCC2)O3)c1 (stereo unspecified)
.	-2	O=C1CSC(=S)N1c1cccc(C(F)(F)F)c1
-0.9	.	CC(C)(C)c1ccc(Cn2cnc(C#N)c2C#N)cc1
.	-2	CN(C)C(CNC(=O)c1ccccc1Cl)c1ccccc1 (stereo unspecified)
2.3	.	CC1(C)CC(=O)C2=C(C1)OC1=C(C(=O)CC(C)(C)C1)C2c1ccc(-c2cccc(Cl)c2)o1
.	11	COc1ccc2c(CC(=O)OC(C)C(=O)NCc3ccc4c(c3)OCO4)coc2c1 (stereo unspecified)
.	8	Cc1nc(SCC(=O)NCc2cccs2)n(C2CCCCC2)c1C
.	15	O=c1c2ccccc2nnn1CSc1ncnc2ccccc12
.	0	CCCN(CC1CC1)S(=O)(=O)c1ccc(S(N)(=O)=O)cc1
.	8	CCc1nn(C(C)C(=O)NCCc2ccccc2)c(=O)c2cc3occc3n12 (stereo unspecified)
3.4	-5	O=C1NC(=O)C2C3c4ccccc4C(c4ccccc43)C12 (stereo unspecified)
.	-2	CC(C)Cn1c(O)c(N=NC(=O)c2cccnc2)c2ccccc21
.	8	CCN(CC)CC1OCC2(CO1)COC(CN(CC)CC)OC2 (stereo unspecified)
2.0	-13	CC(O)Cn1c2ccccc2c2ccccc21 (stereo unspecified)
-2.1	11	CCC(=O)Nc1ccc(NC(=O)c2ccc(F)cc2)nc1

# 2 entries picked at random from those above, as already listed:
MgrA-DNA mod	S aureus helic	mol
.	-2	CN(C)C(CNC(=O)c1ccccc1Cl)c1ccccc1 (stereo unspecified)
.	-5	CN(C)S(=O)(=O)c1ccc(N2CCC(C(=O)O)CC2)cc1

# (listing goes on)
MgrA-DNA mod	S aureus helic	mol
.	-22	Cc1ccc(C(=O)NC(CC(C)C)C(=O)O)cc1 (stereo unspecified)
-1.8	-2	CC(C)(C)NC(=O)Cn1nc(-c2cc3c(s2)CCCC3)oc1=O
.	-11	COc1ccc(O)c(C(=O)c2cnn(C(=O)c3ccc4c(=O)n5c(nc4c3)CCC5)c2)c1
.	-10	CCc1ccccc1Nc1nc(N)nc(Cn2cnc3ccccc32)n1
.	-6	N#C/C(=C(/O)c1cccc2ccccc12)c1nc2ccccc2[nH]1
.	8	COc1cc(CN(C)Cc2ccccc2)cc(OC)c1O
3.1	1	CC(=O)OCC1OC(OC(C)=O)C(NC(=O)C(C)C)C(OC(C)=O)C1OC(C)=O (stereo unspecified)
-2.4	.	O=C(c1ccc(F)cc1)c1cc2cc([N+](=O)[O-])ccc2o1
-0.4	5	COC(=O)CCn1c(=O)c2cccn2c2ccccc21
2.9	.	CCOC(=O)C1=C(C)N=c2s/c(=C\c3cc(Br)cc(OC)c3O)c(=O)n2C1c1ccc(OC)cc1 (stereo unspecified)
-0.2	.	CCCCc1ccc(NC(=S)N2CCC(C(=O)OCC)CC2)cc1
.	8	O=C(COC(=O)c1ccccc1)Nc1ccc(OC(F)F)cc1
3.4	14	Cc1cn(C2CC(NC(=O)C(C)(C)C)C(CO)O2)c(=O)[nH]c1=O (stereo unspecified)
0.7	11	CC(C)Oc1cccc(C(=O)Nc2ccccc2)c1
.	21	Cc1cc(C(=O)COC(=O)C23CC4CC(CC(C4)C2)C3)c(C)n1-c1nccs1
-3.5	.	O=C(c1ccccc1)N1c2ccccc2OC1c1ccc2c(c1)OCO2 (stereo unspecified)
-0.6	.	O=C(Nc1ccccn1)c1cc(-c2ccccc2)c(C(F)(F)F)s1
.	-14	O=C(CSc1nc2ccccc2c(=O)n1-c1ccccc1)N1CCCCC1
1.4	.	N#C/C(=C\c1cccn1-c1ccc(Cl)cc1)S(=O)(=O)c1ccccc1
.	-18	COc1ccccc1NC(=O)Cc1nc(CSc2nncn2C(C)C)cs1
.	-17	CCCn1c2ccccc2c2cnn(CC(=O)OC)c(=O)c21
-2.6	7	CCOC(=O)c1c(C)c(NC(C)=O)c(C)n1C(C)=O
1.1	2	CCSc1nc2c(c(=O)[nH]1)C(c1ccccc1)C1=C(CCCC1=O)N2 (stereo unspecified)
0.5	-18	CCCc1nc(Sc2nncn2C)c2sc(=S)n(-c3ccccc3)c2n1
-0.1	8	COC(=O)c1ccc(/C=C2/SC(=O)N(C(C)C(=O)OC)C2=O)cc1 (stereo unspecified)
0.4	.	COc1ccc(-n2nnnc2-c2c[nH]c3ccc(Cl)cc23)cc1
.	-2	NC(=O)CSc1nnc(-c2c[nH]c3ccccc23)n1-c1ccc(F)cc1
-2.6	13	CC(=O)N1CCN(Cc2ccccc2F)CC1
.	-112	Cc1ccccc1-n1c2nc(C#N)c(C#N)nc2c2c1nc(C(C)C)n1c3ccccc3nc21
.	-4	Cc1cc(=O)[nH]c(NCc2ccccc2)n1

# Going on with the list:
MgrA-DNA mod	S aureus helic	mol
-0.2	10	CCc1ccccc1NC(=O)CC1Nc2ccccc2NC1=O (stereo unspecified)
.	-2	CCOC(=O)N1CCC(n2c(SCC(=O)NCc3ccccc3)nc3ccccc3c2=O)CC1
2.3	-36	O=c1c(OCCc2ccccc2)c(-c2ccco2)oc2ccccc12
.	3	O=C(c1ccc2c(c1)N(Cc1ccccc1)C(=O)c1ccccc1S2=O)N1CCN(Cc2ccccc2)CC1 (stereo unspecified)
-0.9	.	Cc1cc(OC(=O)c2c(-c3c(Cl)cccc3Cl)noc2C)n(-c2ccccc2)n1
.	-11	Cc1ccc2oc(=O)n(CCOc3ccccc3)c2c1
-2.4	.	O=C(NC(=O)c1ccc(-c2cccs2)s1)SCc1cccs1
.	4	O=C(CCS(=O)(=O)c1ccccc1)Nc1ccc2sccc2c1
4.0	7	C/C(=C\c1nsc(Nc2ccccc2)n1)NCCc1ccccc1
.	-4	Cc1ccc(-c2noc(COC(=O)c3nn(-c4ccccc4C(F)(F)F)cc3O)n2)cc1
-4.9	0	C(=Nc1ccc(N2CCOCC2)cc1)c1ccc(Sc2nc3ccccc3[nH]2)o1
.	-16	S=C(N/N=C/c1ccco1)NC1CC2CCC1C2 (stereo unspecified)
.	-6	CCCN(Cc1nnc(-c2ccco2)o1)C(=O)CN1C(=O)COc2ccccc21
.	-17	Cc1[nH]c2ccccc2c1SCCNC(=O)C(C)C
.	-4	CCc1nnc(NC(=O)c2ccc(S(=O)(=O)N(CC)CC)cc2)s1
2.4	8	CCOC(=O)CCn1cc(F)c(=O)[nH]c1=O
0.5	-3	C/C(=N\S(=O)(=O)c1ccc(C)cc1)N1CCCN(S(=O)(=O)c2ccc(C)cc2)C1C(C)C (stereo unspecified)
.	-12	CCCC1NC(=O)NC(C)=C1C(=O)OCC (stereo unspecified)
.	-5	CCOC(=O)c1ccc2nc(NC(=O)C3CCCCC3)sc2c1
3.8	4	O=C(Nc1ncc(Cc2ccccc2)s1)C1CCCO1 (stereo unspecified)
1.3	9	O=C(O)CCP(=O)(O)CN1CCCCCC1
.	4	CNC(=S)NNc1ncc(C(F)(F)F)cc1Cl
-0.8	6	CC(c1ccccc1)C1CC(=O)N(c2ccc(OC(F)(F)F)cc2)C1=O (stereo unspecified)
4.8	14	Cc1cc(C)n(-c2ccc(Cl)c(C(=O)OCc3ccccc3)c2)n1
.	-10	O=C(CN1C(=O)NC2NC(=O)NC21)N/N=C/c1ccccc1O (stereo unspecified)
-1.1	-6	COC(=O)COc1ccc(C)cc1-n1nc2ccccc2n1
8.4	-6	Cc1ccc(S(=O)(=O)c2ccc(/C=C/c3ccco3)cc2)cc1
-0.5	0	O=C(O)C1CSC2(CCCCC2)N1 (stereo unspecified)
.	-13	CC1=C(C(=O)NC2CCCCCC2)C2(CCCCCC2)OC1=O
1.1	-4	CC(C)=C1C2C=CC1C1C(=O)N(CCO)C(=O)C21 (stereo unspecified)

# 7 of the compounds above, with two lines to a compound.
# Each structure is followed by: MgrA-DNA mod	S aureus helic
S=C(N/N=C/c1ccco1)NC1CC2CCC1C2 (stereo unspecified)
    .	-16
CCc1nnc(NC(=O)c2ccc(S(=O)(=O)N(CC)CC)cc2)s1
    .	-4
Cc1ccc2oc(=O)n(CCOc3ccccc3)c2c1
    .	-11
CCCC1NC(=O)NC(C)=C1C(=O)OCC (stereo unspecified)
    .	-12
Cc1ccc(-c2noc(COC(=O)c3nn(-c4ccccc4C(F)(F)F)cc3O)n2)cc1
    .	-4
O=C(Nc1ncc(Cc2ccccc2)s1)C1CCCO1 (stereo unspecified)
    3.8	4
O=C(NC(=O)c1ccc(-c2cccs2)s1)SCc1cccs1
    -2.4	.

# Additional results follow:
MgrA-DNA mod	S aureus helic	mol
.	-9	Cc1onc(-c2ccccc2Cl)c1NC(=O)NCCc1ccncc1
.	14	COc1c2ccoc2nc2c(OC)c(OC3OC(C)C(O)C(O)C3O)ccc12 (stereo unspecified)
1.1	2	CC(C)(C)c1ccc(-c2n[nH]c(=S)n2N=Cc2ccccn2)cc1
0.3	10	CCc1ccc(NC(=O)c2cc3c(=O)oc4ccc(C)cc4c3s2)cc1

# Source: PubChem

# The list is partial; the hit share may differ from the screen's.
